High-throughput results (PubChem)
StopGo FLuc: Primary qHTS Assay for Foot and Mouth Disease Virus Antivirals against NCGC Sytravon and CBC Compound Libraries: Firefly Luciferase Signal. hit rate 0.23% among 120,000. Potency, µM (series often up to 57.5 µM), for inactives: at the top dose signal change, negative = less light. HEK cells with a luciferase reporter of 2A StopGo recoding; active = well fitted falling curve with a large enough effect; inconclusive = small, poorly fitted or top-dose-only effect; inactive = no such curve, though single readings can be large or run the other way; note: nearly all actives have a fitted effect of over 60% in size; overnight with compound
2A Renilla: Primary qHTS Assay for Foot and Mouth Disease Virus Antivirals against NCGC Sytravon and CBC Compound Libraries: Renilla Luciferase Signal | AID 1745857, 2022 | Potency, µM (titrated, usually from 57.5 µM), for inactives: at the highest dose signal change, negative = less light | hit rate 0.32% among 120,000 | HEK cells with a luciferase reporter of 2A StopGo recoding; active means well fitted falling curve with a large enough effect; inconclusive means small, poorly fitted or top-dose-only effect; inactive means no such curve, though single readings can be large or run the other way; note: nearly all actives have a fitted effect of over 55% in size; overnight with compound
The depositor's hits bear a star; ? = inconclusive; [ ] = dose if it differs, or a comment. % is set by controls: 0 for no effect and ±100 for the full control effect; potency is the fitted concentration of half-maximal effect. Not all compounds are listed; the hit share may differ from the screen's.

| SMILES | StopGo FLuc | 2A Renilla |
| --- | --- | --- |
| CC(=O)Oc1ccc(-c2ccc(C(=O)NC34CC5CC(CC(C5)C3)C4)cc2)cc1 | 34%[activator] | 28% |
| CC(C)c1ccc(-n2nnnc2SCC(=O)N(Cc2ccco2)C2=CCCCC2)cc1 | -6% | 0% |
| O=C(CSc1nc2c([nH]c3ccccc32)c(=O)n1-c1ccc(Cl)cc1)c1ccccc1 | 33%[activator] | -3% |
| CCn1c(CSc2nnc(C3CC3)n2-c2ccccc2)nc2cc(S(=O)(=O)N(C)C)ccc21 | -2% | 14% |
| CCCCCC=CCC=CCCCCCCCC(=O)OCC | -17%[11.5 µM] | -2% |
| CCCCCn1nc(C(=O)N2CCC(C(=O)Nc3ccc4c(c3)OCO4)CC2)c2ccccc2c1=O | 0% | 56%[activator] |
| O=c1c2sccc2n(Cc2cc(=O)n3ccccc3n2)c(=O)n1-c1cc(F)ccc1F | 22% | -7% |
| Cc1ccc(CN2C(=O)N(c3ccc(C)c(Cl)c3)S(=O)(=O)c3ccccc32)cc1 | -8% | -9% |
| COc1cc(/C=C(\C#N)C(=O)NCC2CCCO2)ccc1O (configuration not stated) | 6% | 10% |
| O=C(NN=C(C1CC1)C1CC1)C(c1ccccc1)c1ccccc1 | 12% | 6% |
| Cc1csc(SC2=CS(=O)(=O)c3ccccc32)n1 | ? | ? |
| COc1ccc(Nc2cc(C(=O)NCCc3ccccc3)c3ccccc3n2)cc1OC | 4% | -8% |
| CCCn1c(=O)[nH]c(=O)c2c1nc(-c1ccc(O)cc1)n2CCOC | 18% | 15% |
| CN(C1CCCCC1)S(=O)(=O)c1ccc2c(c1)c(=O)c(C(=O)NCCc1ccccc1)cn2C | -3% | -7% |
| COc1cc(OC)c(N(C)C(=O)c2cn(C3CCCC3)c(=O)c3c2c2ccccc2n3C)cc1Cl | -10% | -9% |
| CCSC1=N/C(=C\c2c(C)cc(C)cc2C)C(=O)S1 | 16% | -4% |
| CCCOC(=O)c1ccc(NC(=O)COC(=O)C2CCN(c3ccc(C(F)(F)F)cn3)CC2)cc1 | 23% | -19% |
| N#C/C(=C/c1ccc(C(F)(F)F)cc1)C(=O)Nc1ccccc1Oc1ccccc1 | 25% | 26% |
| COC(=O)Cn1c(=O)c2c(nc(-n3nc(C)cc3C)n2Cc2ccc(C)cc2)n(C)c1=O | -14% | -15% |
| CCCCc1ccc(NC(=O)c2cc(-c3ccc(C)c(F)c3)on2)cc1 | -10% | -3% |
| O=C(NCCCc1ccccc1)C1CCN(C(=O)N2CCOc3ccc(Cl)cc32)CC1 | 1% | 25% |
| O=C(NCc1ccccn1)C1c2ccccc2C(=O)N(Cc2ccccc2)C12CCCCC2 (configuration not stated) | ? | -17% |
| Cc1ccc(CNC(Cc2c[nH]c3ccccc23)C(=O)O)cc1 (configuration not stated) | 23% | -1% |
| CCOc1cc2c(cc1CNC(=O)c1ccc(Cl)cc1Cl)OC(C)C2 (configuration not stated) | 39% | 21% |
| Clc1ccc(CCNc2nc3ccccc3c3nc(-c4ccccc4)nn23)cc1 | -10% | -15% |
| CC(C)(C)N1CC(c2nc3ccccc3n2Cc2ccccc2)CC1=O (configuration not stated) | 3% | 2% |
| Clc1ccccc1-c1noc(-c2ccco2)n1 | 110%[activator] | 14% |
| O=C(Nc1cccc2ncccc12)c1ccc2ccccc2c1 | 0% | 22% |
| COc1ccc(OC)c(NC(=O)C2CC(=O)Nc3c(-c4ccccc4OC)cnn32)c1 (configuration not stated) | 7% | 3% |
| COc1ccc(NC(=O)C2(c3ccc(C)cc3)CCCC2)cc1 | -24% | -26% |
| c1cc(CSc2ccc3c(c2)OCCO3)ccc1CSc1ccc2c(c1)OCCO2 | -23% | -35% |
| Cc1ccc(C2CC(=O)n3nc(-c4cccc(C)c4)nc3S2)cc1 (configuration not stated) | -1% | 2% |
| COc1ccc2cc(C(=O)NCc3ccco3)[nH]c2c1 | 155%[activator] | 141%[activator] |
| CCOc1ccccc1C(=O)Oc1ccc(OC)cc1 | 11% | 2% |
| O=C(CCc1cccnc1)NCC1CC1 | ? | 11% |
| Cc1ccc(CNS(=O)(=O)c2ccc(C(=O)N(C)C)s2)cc1 | -5% | 6% |
| CCOC(=O)c1[nH]c2ccc(C)cc2c1NC(=O)CNC | 40%[activator] | 13% |
| Cc1ccc(C(=O)NCC(NC(=O)c2ccc(C)nc2)C2CC2)cn1 (configuration not stated) | 11% | -11% |
| CC(C)/C=N/NC(=O)CCCCC(=O)N/N=C/C(C)C | 13% | 15% |
| CC(C)(C)c1ccc(C(=O)NCCc2ccccn2)cc1 | 24% | 25% |
| COc1cccc(OC)c1C(=O)Nc1cccc2ncccc12 | 0% | 15% |
| Cc1ccc(CNC(=O)CCc2ncc(-c3c(F)cccc3F)o2)cc1 | 0% | 11% |
| Cc1c(Cl)cccc1NC(=O)CSc1nc(=O)n(Cc2ccncc2)c2c1CCC2 | -8% | 36%[activator] |
| CCOC(=O)c1c(C)[nH]c(C)c1S(=O)(=O)N1CCC(C(=O)NCc2ccc(F)cc2)CC1 | 1% | 17% |
| CCc1cccc(NC(=O)CSc2ncc3c(n2)-c2ccccc2N(CC)S3(=O)=O)c1 | 3% | -8% |
| CCc1ccc(S(=O)(=O)c2cn(Cc3ccccc3)c3cc(F)c(F)cc3c2=O)cc1 | -14% | -4% |
| CC(=O)c1ccc(NC(=O)C(C)Sc2cc(Cl)ccc2Cl)cc1 (configuration not stated) | 17% | 13% |
| COc1ccc(Cl)cc1NC1=C(C(=O)N2CCOCC2)S(=O)(=O)c2ccccc21 | 5% | 66%[activator] |
| Cc1ccc(C)c(N2CCN(C(=O)CCS(=O)(=O)c3cc(Br)cc4c3N(C(=O)C3CC3)CC4)CC2)c1 | -17% | 25% |
| O=C1C(c2ccccc2F)N(C2CCCC2)C(=O)CN1C1CCCCCC1 (configuration not stated) | 3% | -2% |

6 entries already listed, sorted by count of non-hydrogen atoms, low to high.
| SMILES | StopGo FLuc | 2A Renilla |
| --- | --- | --- |
| O=C(CCc1cccnc1)NCC1CC1 | ? | 11% |
| CC(C)(C)c1ccc(C(=O)NCCc2ccccn2)cc1 | 24% | 25% |
| CC(=O)c1ccc(NC(=O)C(C)Sc2cc(Cl)ccc2Cl)cc1 (configuration not stated) | 17% | 13% |
| Cc1ccc(C2CC(=O)n3nc(-c4cccc(C)c4)nc3S2)cc1 (configuration not stated) | -1% | 2% |
| Cc1ccc(C(=O)NCC(NC(=O)c2ccc(C)nc2)C2CC2)cn1 (configuration not stated) | 11% | -11% |
| CCc1ccc(S(=O)(=O)c2cn(Cc3ccccc3)c3cc(F)c(F)cc3c2=O)cc1 | -14% | -4% |

Next structures:
| SMILES | StopGo FLuc | 2A Renilla |
| --- | --- | --- |
| CCC(Oc1ccccc1F)C(=O)Nc1ccc(F)c(Cl)c1 (configuration not stated) | 4% | 3% |
| Cc1ccc(S(=O)(=O)Cc2nc(-c3ccc(C(=O)N4CCOCC4)cc3)oc2C)cc1 | 12% | 25% |
| COc1ccc(OC)c(NC(=O)CN2CCCN(Cc3cc(C)ccc3C)S2(=O)=O)c1 | -14% | -9% |
| CSCCCNC(=S)NC1CCSc2ccccc21 (configuration not stated) | 4% | 134%[activator] |
| COCCCNC(=O)C[C@H]1C[C@@]2(C(=O)OC)C(=C[C@H](C(C)C)O[C@@H]2C2CC2)N(Cc2ccc3c(c2)OCO3)C1=O | -6% | 24% |
| Cc1cccc(N/N=C(/c2ccccc2)c2ccc(F)cc2)c1C | 22% | 5% |
| O=C(CSC1=Nc2ccccc2N=C(c2ccc(F)cc2)C1)NCc1ccc(Cl)cc1 | 30% | 4% |
| O=S(=O)(Nc1nc2ccccc2nc1Nc1ccccc1F)c1cccs1 | -4% | -1% |
| CCOc1ccc(-n2c(SCC(=O)Nc3ccc(CC)cc3)nc3[nH]ncc3c2=O)cc1 | -8% | -4% |
| CC(=O)Nc1ccc(NC(=O)C(Cc2ccccc2)N2Cc3ccccc3C2=O)cc1 (configuration not stated) | -15% | 13% |
| CCn1cnc2c1c(=O)n(CC(=O)Nc1ccccc1N1CCCC1=O)c(=O)n2Cc1ccccc1 | 0% | 14% |
| Cc1cccc(-c2nc(CCNC(=O)c3ccco3)cs2)c1 | 9% | 7% |
| Cc1nc2nc3ccn(CCCN(C)C)c(=O)c3c(-c3ccccc3)n2n1 | -2% | 9% |
| Cc1cc(C)nc(Nc2ncc(O)n2-c2ccc(F)cc2)n1 | 11% | 1% |
| O=C1OC(C(=O)OCc2ccc3c(c2)OCO3)Cc2ccccc21 (configuration not stated) | ? | 5%[1.06 µM] |
| CNC(=O)/C=C/c1cccc([N+](=O)[O-])c1 | -3% | -7% |
| CCOC(=O)c1c(S(=O)(=O)NCC(=O)Nc2ccc(C(C)=O)cc2)c(C)n(C)c1C | 12% | 179%[activator] |
| Cc1cccc(C)c1NC(=O)CSc1ncc2c(n1)-c1ccc(Cl)cc1N(Cc1ccccc1)S2(=O)=O | -17% | -5% |
| Cc1ccc(Oc2nc(-c3ccncc3)nc3ccccc23)cc1 | 25% | 16% |
| CC(C)c1ccc(-n2nnnc2C2(NCc3ccccc3)CCCC2)cc1 | 5% | 144%[activator] |
| N#Cc1c(SCCN2CCCC2)nc(N2CCCC2)c2c1CCCC2 | -22% | -20% |
| CCCCOC(=O)c1nc2ccccc2nc1Nc1cccc(OC)c1 | 21% | 11% |
| Nc1ccc(S(N)(=O)=O)cc1 | -14%[11.5 µM] | -11% |
| O=C(O)C(c1c[nH]c2cc(Cl)ccc12)N1CCN(C(c2ccccc2)c2ccccc2)CC1 (configuration not stated) | -25% | -26% |
| CC(C)(C)c1ccc(NC(=O)c2ccc(F)cc2F)cc1 | 222%[activator] | 5% |

Reformatted: entries from further up
Every second line gives: StopGo FLuc | 2A Renilla
CCCCOC(=O)c1nc2ccccc2nc1Nc1cccc(OC)c1
→ 21% | 11%
Cc1c(Cl)cccc1NC(=O)CSc1nc(=O)n(Cc2ccncc2)c2c1CCC2
→ -8% | 36%[activator]
CCOC(=O)c1[nH]c2ccc(C)cc2c1NC(=O)CNC
→ 40%[activator] | 13%
O=C(O)C(c1c[nH]c2cc(Cl)ccc12)N1CCN(C(c2ccccc2)c2ccccc2)CC1 (configuration not stated)
→ -25% | -26%
CCSC1=N/C(=C\c2c(C)cc(C)cc2C)C(=O)S1
→ 16% | -4%
CCC(Oc1ccccc1F)C(=O)Nc1ccc(F)c(Cl)c1 (configuration not stated)
→ 4% | 3%
Cc1ccc(Oc2nc(-c3ccncc3)nc3ccccc23)cc1
→ 25% | 16%

Next part
| SMILES | StopGo FLuc | 2A Renilla |
| --- | --- | --- |
| CC(Sc1ccc(C(F)(F)F)cn1)C(=O)NC(C)(C)C (configuration not stated) | -6% | 2% |
| Cc1ccc(C(=O)NCc2nc(-c3ccccc3)oc2C)cc1 | 0% | 16% |
| COc1nc2cc(C)c(C)cc2nc1C(=O)Nc1ccc(Br)cc1 | 7% | -5% |
| S=C(NCc1ccccc1)C12CC3CCC(CC(C3)C1)C2 | -11% | 17% |
| CCc1c(-c2ccccc2)nc2ccccc2c1C(=O)NCc1ccc(C)cc1 | -13% | ? |
| CCOc1ccc(-c2cc(C(=O)O)c3ccccc3n2)cc1 | 56%[activator] | ? |
| COCCn1c(=N)c(C(=O)NCc2ccco2)cc2c(=O)n3cc(C)ccc3nc21 | -10% | -1% |
| Cc1ccc(NC(=O)CN2CCSc3ccc(S(=O)(=O)N4CCCC4)cc32)cc1C | 14% | 68%[activator] |
| N#Cc1ccc(F)c(CSc2nnc(NCc3ccccc3)s2)c1 | 13% | 23% |
| COc1ccc(OC(=O)C23CC4CC(CC(Cl)(C4)C2)C3)cc1 | -8% | -1% |
| O=C(CCCn1ccc2cc(S(=O)(=O)N3CCCC3)ccc21)NCc1ccco1 | 14% | 67%[activator] |
